# Lassa entry inh: Lassa virus entry inhibition. Lassa virus pseudotype entry inhibition, cell reporter; control for the full effect not named in the record. 300,000 compounds, 1.2% hits. Potency, µM (top dose mostly 37.9 µM), for inactives: at the highest dose activity change, negative = inhibition, hits mostly inhibitors; active means well fitted inhibition curve with a large enough effect; inconclusive means small, poorly fitted or top-dose-only effect, or effect the other way; inactive means flat fitted curve, though single readings scatter; tested in HEK293 cells; also: % is scaled to controls: 0 for no effect and ±100 for the full control effect; nearly all actives have a fitted effect of over 50% in size; luciferase read-out
# Cruzain inh noDet: cruzain (T. cruzi) inhibition without detergent; purified cruzain, Z-FR-AMC fluorescence, no detergent; Potency, µM, without a hit: max response, negative = inhibition, actives largely listed as inhibitors; 200,000 compounds, 2.3% hits; AID 1476; active = well fitted curve in the direction sought with a large enough effect; inconclusive = small, poorly fitted or top-dose-only effect, or another doubt; inactive = no such curve, though single readings can be large; an effect the other way counts as inactive or inconclusive;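 also: plate controls were enzyme without inhibitor for no effect and buffer without enzyme for full effect; nearly all actives have a fitted effect of over 40% in size; top concentration of the series not given in the record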
# Target sequence (P25779 123-467 limits assumed): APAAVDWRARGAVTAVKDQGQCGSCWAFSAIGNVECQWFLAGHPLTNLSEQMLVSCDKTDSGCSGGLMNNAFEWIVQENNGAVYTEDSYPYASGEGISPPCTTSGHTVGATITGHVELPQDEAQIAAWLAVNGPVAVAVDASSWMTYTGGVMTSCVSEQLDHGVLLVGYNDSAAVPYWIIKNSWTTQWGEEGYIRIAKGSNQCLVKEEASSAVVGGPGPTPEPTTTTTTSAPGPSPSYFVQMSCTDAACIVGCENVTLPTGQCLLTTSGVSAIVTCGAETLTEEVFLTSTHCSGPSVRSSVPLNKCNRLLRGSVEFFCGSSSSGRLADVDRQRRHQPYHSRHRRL
#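 Detergent-free condition (0.00005% Triton X-100) in acetate buffer pH 5.5 with DTT. 1.5 nM enzyme and compound were pre-mixed 15 min, then 2 uM Z-FR-AMC substrate added; reaction progress from fluorescence change between first and third reads (60 s).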
# Marburg entry inh: blocks Marburg virus binding to or entry into cells; Potency, µM (top dose mostly 37.8 µM), for inactives: at the highest dose activity change, negative = inhibition, usual class: inhibitors; AID 540276; 300,000 compounds, 1.8% hits; Marburg virus pseudotyped entry inhibition, cell reporter; control for the full effect not named in the record; about a third of the inactives were read at about 46 µM; active = well fitted inhibition curve with a large enough effect; inconclusive = small, poorly fitted or top-dose-only effect, or effect the other way; inactive = flat fitted curve, though single readings scatter; tested in HEK293 cells; about a fifth of its hits are not listed in these tables; also: % is scaled to controls: 0 for no effect and ±100 for the full control effect; luciferase read-out
# 2A StopGo: lowers the luciferase signal of an FMDV 2A StopGo reporter; 410,000 compounds, 1.2% hits; human cells with a luciferase reporter of 2A StopGo recoding; control for the full effect not named in the record; Potency, µM (doses to about 57.9 µM), for the others: top-dose signal change, negative = less light; AID 1159524; active = well fitted falling curve with a large enough effect; inconclusive = small, poorly fitted or top-dose-only effect; inactive = no such curve, though single readings can be large or run the other way; tested in HEK293T cells; also: % is scaled to controls: 0 for no effect and ±100 for the full control effect; nearly all actives have a fitted effect of over 45% in size; luciferase light after 4 h
# SARS PLpro yeast: SARS-CoV PLP inhibition in yeast; S. cerevisiae expressing SARS-CoV PLpro, growth rescue; control for the full effect not named in the record; Potency, µM (titrated, usually from 32.9 µM), inactives show at the top dose activity, positive = growth rescue; 330,000 compounds, 0.19% hits; also: 0% is about no effect; nearly all actives have a fitted effect of over 55% in size; growth read by luminescence after 48 h
# NS1 function inh: blocks influenza NS1 protein function; S. cerevisiae slowed by influenza A NS1, growth recovery by OD600; Potency, µM (titrated, usually from 46.1 µM), for the others: top-dose activity, positive = more growth; 270,000 compounds, 0.4% hits; AID 2326; also: actives are rising curves; nearly all actives have a fitted effect of over 50% in size
#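 Recovery from NS1-induced slow growth read by OD600 in budding yeast switched to galactose assay medium (pH 6.0, -URA) at 1:100 dilution. Compound 23 nl per well; the matching strain lacking NS1 serves as control.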
# RE007 growth inh: less growth of the S. pombe RE007 Vpr strain. S. pombe RE007 Vpr strain, BacTiter-Glo ATP luminescence, 24 h; control for the full effect not named in the record. 360,000 compounds, 0.21% hits. Potency, µM (top dose mostly 92.2 µM), without a hit: top-dose activity change, negative = less growth. AID 651644; active = well fitted falling curve with a large enough effect; inconclusive = small, poorly fitted or top-dose-only effect; inactive = no such curve, though single readings can be large or run the other way;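 also: % is scaled to controls: 0 for no effect and ±100 for the full control effect; nearly all actives have a fitted effect of over 50% in size; the assay follows cell death caused by Vpr and the record does not say whether a fall means rescue or toxicity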
#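 Fission yeast strain RE007, carrying one chromosomally integrated HIV-1 vpr copy, was seeded at OD 0.01 in PMG+AL medium with 23 nL pinned compound. After 24 h at 30 °C and 99% humidity, viability was read by BacTiter-Glo luminescence.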
# Cruzain inh Det: cruzain (T. cruzi) inhibition with detergent; P25779; purified cruzain, Z-FR-AMC fluorescence, 0.01% Triton; Potency, µM, for inactives: max response, negative = inhibition, actives largely listed as inhibitors; 200,000 compounds, 0.43% hits; AID 1478; active = well fitted curve in the direction sought with a large enough effect; inconclusive = small, poorly fitted or top-dose-only effect, or another doubt; inactive = no such curve, though single readings can be large; an effect the other way counts as inactive or inconclusive;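 also: plate controls were neutral wells for no effect and buffer without enzyme for full effect; nearly all actives have a fitted effect of over 40% in size; top concentration of the series not given in the record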
#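 Cruzain (1.5 nM) preincubated 15 min at RT with compound in 100 mM sodium acetate pH 5.5, 5 mM DTT, 0.01% Triton X-100. Reaction started with 2 uM Z-FR-AMC; AMC fluorescence (ex 360/em 450 nm) change over 60 s gave rate.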
# Active calls of the source: *; ? = inconclusive; nt = no result given; & = joins results of further samples; [ ] = another dose, or the depositor's remark. Unless noted, calls follow the shape of the dose curve; as a rule, active means well fitted rising curve with a large enough effect; inconclusive means small, poorly fitted or top-dose-only effect; inactive means no such curve, though single readings can be large or run the other way. Potency is read from the fitted curve at half-maximal effect. Rows are unselected; overall some 4.8% were active at least once.
SMILES,Lassa entry inh,Cruzain inh noDet,Marburg entry inh,2A StopGo,SARS PLpro yeast,NS1 function inh,RE007 growth inh,Cruzain inh Det
Cc1ccccc1NC(=O)NC1(C(=O)N2CCC(C(N)=O)CC2)CCCCC1,23%,nt,16%[46.1 µM],-4%,0%,3%,0%,nt
CCc1ccc(NS(=O)(=O)c2ccc3[nH]cc(C(=O)NCCc4ccccc4)c(=O)c3c2)cc1,0%[46.1 µM],7.9µM*,24%[46.1 µM],14%,nt,nt,nt,-1.2%
O=C(Nc1cccc(F)c1)N1CCN(C/C=C/c2ccccc2)CC1,13%,1%,-14%,-19%,10%,-4%,11%,-0.2%
CC1CCCC(NC(=O)C2CCN(S(=O)(=O)c3cnc[nH]3)CC2)C1C (stereo not given),nt,nt,nt,-4%,3%,3%,15%,nt
Cc1cccc(C)c1OCc1cc(C(=O)N2CCN(c3ccccn3)CC2)no1,nt,nt,nt,-2%,-10%,-58%,-17%,nt
COc1cccc(CNc2ccc3[nH]c(=O)[nH]c3c2)c1OCc1ccccc1Cl,nt,nt,nt,?,-1%,2%,2%,nt
COc1ccc2c(c1OC)C(=O)N(c1cccc(C)c1)C2,?,1%,?,-12%,-24%,-36%,-12%,-0.9%
COc1ccc(CC(=O)N2CCC(n3nccc3NC(=O)C3CC3)CC2)cc1,-20%,nt,-4%,0%,-2%,1%,3%,nt
CCOc1ccccc1C(=O)N1CCC(n2nnc3cc(C(F)(F)F)ccc32)CC1,?,?,2%,?,4%,-9%,-1%,-1.8%
O=C(CCS(=O)(=O)c1cccs1)N1CCN(c2ccc(F)cc2)CC1,-2%,4%,?,26%,-25%,-11%,-11%,-0.1%
NC(=S)N/N=C\c1c(OCc2ccccc2Cl)ccc2ccccc12,?,nt,?,?,11%,nt,7%,nt
Cc1cc(=O)n(Cc2cccc(F)c2)c2c1c(C)nn2-c1cccc(F)c1,6%[46.1 µM],-2%,nt,-19%,nt,nt,nt,0.3%
CN1CCN(S(=O)(=O)c2cccc(S(=O)(=O)c3cccc(S(=O)(=O)N4CCN(C)CC4)c3)c2)CC1,-1%,3%,-4%,-8%,-11%,0%,5%,5.3%
COc1cccc(-c2nnc(SCC(=O)N3CCCC3=O)n2-c2ccccc2)c1,16%,20%,3%,nt,0%,-9%,-7%,4.1%
Cc1cc(/C=N/NC(=O)C(O)(c2ccccc2)c2ccccc2)c(C)n1-c1ccc(C(=O)O)cc1,-26%,-1%,?,0%,13%,0%,11%,-12%
COC(=O)C1=C(C(=O)OC)[C@@H]2N(C)c3ccccc3[C@@]23C[C@@H](C(=O)OC)N(C(C)=O)C3=N1,nt,nt,nt,-14%,1%,-11%,12%,nt
CCn1c(SCC(=O)Nc2cc(C)on2)nc2c1c(=O)n(C)c(=O)n2C,2%,-5%,8%,1%,-1%,0%,-1%,2.2%
CC(C)C[C@H](NC(=O)OC(C)(C)C)C(=O)NCC1CCC(C(=O)N[C@@H](Cc2ccccc2)C(=O)O)CC1 (stereo not given in full),nt,nt,nt,-4%,0%,2%,-7%,nt
COc1ccc(NC(=O)c2ccc(N3CCOCC3)nc2)cc1,6%[46.1 µM],nt,18%[46.1 µM],-22%,?,0%,-7%,nt
CC(C)(C)NC(=O)C1CCN(C(=O)c2ccc(Br)cc2)CC1,-27%[14.3 µM],2%,5%,-13%,1%,5%,11%,0.9%
CCCc1nnc(NC(=O)CCC(=O)NC2CCCCCC2)s1,5%[46.1 µM],nt,0%[46.1 µM],-8%,-1%,-12%,-6%,nt
O=C(NCc1ccc2c(c1)OCO2)c1cc(-c2ccccc2)on1,-8%,?,13%,nt,2%,0%,-1%,-0.2%
CCCC(C)C(=O)Nc1ccc(S(=O)(=O)Nc2nccc(C)n2)cc1 (stereo not given),-12%,nt,10%[46.1 µM],7%,0%,1%,-19%,nt
COc1ccc([N+](=O)[O-])cc1NCc1ccccc1,16%,6%,23%,-24%,?,-14%,-29%,-10%
Cc1nn(C(C)(C)C)c(C)c1/C=N/OC(=O)Nc1ccc(Cl)c(Cl)c1,nt,nt,nt,0.32µM*,-1%,-6%,13%,nt
COc1ccc(OC)c(C(=O)NC(CC(N)=O)c2ccc(N3CCN(c4ccccn4)CC3)c([N+](=O)[O-])c2)c1 (stereo not given),nt,nt,nt,-6%,-2%,-7%,-1%,nt
O=C(CN1C(=O)NC(Cc2c[nH]c3ccccc23)C1=O)NCCc1ccc(F)cc1 (stereo not given),nt,nt,nt,-13%,2%,-2%,-15%,nt
CC(C)COC(=O)CNc1n[nH]c(=S)[nH]c1=O,5%,1%,?,nt,0%,6%,-1%,-2.0%
NNC(=O)c1cc2nc(-c3cccs3)cc(C(F)(F)F)n2n1,nt,nt,nt,6%,-3%,-9%,15%,nt
COc1cccc(-c2nn(-c3ccc(F)cc3)cc2C(=O)NCC2CCCO2)c1 (stereo not given),11%,nt,1%,4%,3%,nt,-6%,nt
COc1ccc(C[C@H](C)NC[C@@H](O)c2ccc(O)c(NC=O)c2)cc1,nt,6%,nt,-11%&11%,nt,nt,-6%[18.4 µM],-0.2%
Cc1oc2ccc(O)c(CN3CCOCC3)c2c1C(=O)Nc1cccc(C(F)(F)F)c1,-8%[46.1 µM],-5%,-8%[46.1 µM],0%,nt,nt,nt,-3.8%
O=C(Cn1cc(SCc2ccc(Cl)cc2)c2ccccc21)N1CCCC1,11%[46.1 µM],19%,nt,2%,nt,nt,nt,-9.1%
CN(C)c1ccc(C(CNC(=O)COc2ccc(Cl)cc2)N2CCCC2)cc1 (stereo not given),nt,nt,nt,-26%,-1%,-1%,0%,nt
Cc1ccc(NC(=O)Cn2c(=O)n(CCCCC(=O)NCc3ccccc3Cl)c(=O)c3ccccc32)cc1,8%[46.1 µM],6%,?,-23%,nt,nt,nt,-2.3%
O=C(O)CSCNC(=O)CC12CC3CC(CC(C3)C1)C2,-3%,1%,1%,0%,8%,-4%,28%,6.5%
COc1ccc(C2=C(C)C(N3CCC(C(=O)NCc4ccc(C)o4)CC3)=NS2(=O)=O)cc1,-3%[46.1 µM],19%,nt,-7%,nt,nt,nt,-4.5%
CC1CCCCC1NC(=O)c1ccc(NC2=NC3CS(=O)(=O)CC3S2)cc1 (stereo not given),nt,nt,nt,-3%,-9%,-7%,-1%,nt
COc1cc2c(cc1OC)C(C)N(C(=O)Nc1ccc(F)cc1)CC2 (stereo not given),nt,nt,nt,-15%,-1%,-2%,18%,nt
CCOC(=O)N1CCC(NC(=O)c2cc(C(=O)NCc3cccc(Cl)c3)ccc2CO)CC1,-12%,28%,-2%&-18%,-13%,8%,-6%,1%,4.3%
Cc1nc2ccc(-c3nc4cc(N)ccc4o3)cc2[nH]1,?,-11%,?,0%,-1%,14%,-14%,-2.4%
C=C(c1ccccc1Cl)[n+]1ccccc1,-12%,nt,?,-12%,0%,-4%,-7%,nt
CC(=O)Nc1ccc(OCC(O)CN2CCN(c3ccc(C)c(Cl)c3)CC2)cc1 (stereo not given),?,4%,?,nt,3%,-2%,2%,-4.8%
Cc1cc2cc(CN(CCN3CCOCC3)C(=O)Nc3ccccc3F)c(=O)[nH]c2cc1C,-12%,4%,-21%&-21%,-14%,3%,-5%,4%,13%
CC(=O)CC(=O)NC1CCc2ccccc21 (stereo not given),5%,nt,12%,-6%,nt,nt,22%,nt
CN(C)S(=O)(=O)c1cccc(NC(=O)c2sccc2-c2ccccc2)c1,-15%,nt,?,-13%,2%,4%,-23%,nt
CC1=Nc2cc(C(=O)NC3CCC(C)CC3)ccc2Sc2c(C)ccc(C)c21 (stereo not given),?,?,?,33%[activator],nt,nt,nt,-3.7%
CCN(CC)C(=S)SCC(=O)c1ccc(Br)cc1,?,-1%,-11%,20%,-59%,-18%,1%,-2.0%

# Pulled by compound from the entries so far, three records:
SMILES,Lassa entry inh,Cruzain inh noDet,Marburg entry inh,2A StopGo,SARS PLpro yeast,NS1 function inh,RE007 growth inh,Cruzain inh Det
COc1ccc(NC(=O)c2ccc(N3CCOCC3)nc2)cc1,6%[46.1 µM],nt,18%[46.1 µM],-22%,?,0%,-7%,nt
CCCc1nnc(NC(=O)CCC(=O)NC2CCCCCC2)s1,5%[46.1 µM],nt,0%[46.1 µM],-8%,-1%,-12%,-6%,nt
COc1cc2c(cc1OC)C(C)N(C(=O)Nc1ccc(F)cc1)CC2 (stereo not given),nt,nt,nt,-15%,-1%,-2%,18%,nt

# (listing goes on)
SMILES,Lassa entry inh,Cruzain inh noDet,Marburg entry inh,2A StopGo,SARS PLpro yeast,NS1 function inh,RE007 growth inh,Cruzain inh Det
CCC(=O)Nc1ccc(C(=O)NNC(=O)C2CCCCC2)cc1,26%[46.1 µM],nt,9%[46.1 µM],1%,-7%,3%,-7%,nt
O=C(NC(=S)NC1CCCCCCCCCCC1)c1cccnc1,1%,-8%,?,-2%,6%,3%,-4%,-2.3%
Cc1nnc2n1-c1ccc(Br)cc1C(c1ccccc1Cl)=NC2,0%,-2%,-3%,-16%,4%,-1%,2%,4.4%
Cc1nc(SCc2ccc(O)c([N+](=O)[O-])c2)c([N+](=O)[O-])[nH]1,nt,nt,nt,?,0%,5%,17%,nt
Cc1ccccc1C(=O)OCc1cc(=O)n2c(C)csc2n1,0%[46.1 µM],-11%,nt,41%[activator],nt,nt,nt,-4.6%
Cc1cc2c(cc1C)-c1nnc(-c3ccc4ccccc4n3)n1C(C)(C)C2,nt,-3%,nt,nt,3%,12%,nt,3.2%
COc1ccc2nc3cc(Cl)ccc3c(Nc3cc(C(C)C)c(O)cc3C)c2c1,?,nt,11µM*,?,-6%,-43%,-12%,nt
Clc1ccc(-c2onc3c2CCCC3)cc1,11%,-6%,2%,22%,-2%,-65%,?,-4.2%
CC1(C)COC(c2ccccc2Cl)OC1,0%[46.1 µM],nt,?,4%,nt,nt,1%,nt
